# EPAC1 ag val: Validation qHTS for agonist of cAMP-regulated guanine nucleotide exchange factor 3 (EPAC1); EPAC1 Rap1b BODIPY-GDP exchange, fluorescence; Rap guanine nucleotide exchange factor 3 (Homo sapiens), O95398; Potency, µM, inactives show max response, positive = active, most hits filed as activators; AID 1645883, 2021; actives 1% (n = 16,000); active means well fitted activation curve with a large enough effect; inconclusive means small, poorly fitted or top-dose-only effect; inactive means no such curve, though single readings can be large or run the other way;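 further: nearly all actives have a fitted effect of over 70% in size; series mostly up to about 76 or 150 µM; scaled to a cAMP control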
# Target sequence (O95398 whole entry, looked up): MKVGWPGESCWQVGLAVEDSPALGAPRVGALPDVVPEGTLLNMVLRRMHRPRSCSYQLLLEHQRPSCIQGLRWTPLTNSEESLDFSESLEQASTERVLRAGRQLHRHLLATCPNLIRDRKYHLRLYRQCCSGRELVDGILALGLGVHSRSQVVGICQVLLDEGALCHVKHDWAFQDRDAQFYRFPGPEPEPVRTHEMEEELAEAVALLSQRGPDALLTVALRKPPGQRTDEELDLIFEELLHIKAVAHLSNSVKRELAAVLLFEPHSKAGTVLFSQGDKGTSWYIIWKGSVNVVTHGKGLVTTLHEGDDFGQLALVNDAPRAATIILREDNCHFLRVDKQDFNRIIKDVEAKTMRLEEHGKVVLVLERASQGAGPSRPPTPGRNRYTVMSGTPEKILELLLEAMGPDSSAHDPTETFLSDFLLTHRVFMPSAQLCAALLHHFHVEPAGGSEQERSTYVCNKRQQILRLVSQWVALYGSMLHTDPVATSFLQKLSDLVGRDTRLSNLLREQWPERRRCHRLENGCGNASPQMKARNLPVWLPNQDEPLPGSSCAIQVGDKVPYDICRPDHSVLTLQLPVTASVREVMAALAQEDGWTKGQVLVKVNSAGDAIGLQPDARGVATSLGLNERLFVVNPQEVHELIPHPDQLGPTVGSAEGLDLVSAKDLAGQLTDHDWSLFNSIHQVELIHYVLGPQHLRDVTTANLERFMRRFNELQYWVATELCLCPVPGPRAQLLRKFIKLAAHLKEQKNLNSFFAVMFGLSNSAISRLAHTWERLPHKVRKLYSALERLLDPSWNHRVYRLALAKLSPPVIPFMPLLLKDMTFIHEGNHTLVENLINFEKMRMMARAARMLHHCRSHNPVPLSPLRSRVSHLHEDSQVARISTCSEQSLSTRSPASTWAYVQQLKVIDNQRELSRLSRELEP
# Numbers without * were called inactive; ? = inconclusive; & = joins results of further samples; ! = repeats disagree; [ ] = remark or other dose. On the % scale 0 is the no-effect control and ±100 the full control effect; potency means the concentration at half of the fitted maximal effect. Only part of the results is shown; rates above refer to the full screens.
# The opening three compounds, ahead of the listing:
CC(C)NC(=O)N1CC[C@@]2(CCCN(C(=O)Oc3ccccc3)C2)C1
- EPAC1 ag val: ?
O=c1[nH]c(=O)c2nc(Br)n(C3OC(CO)C(O)C3O)c2[nH]1 (stereo unspecified)
- EPAC1 ag val: ?
COc1ccc(OC)c(-c2ccnc(-n3ncc(C(=O)N(C)CCO)c3C3CC3)n2)c1
- EPAC1 ag val: -7%

# All compounds of this part (from the top)
CC(C)NC(=O)N1CC[C@@]2(CCCN(C(=O)Oc3ccccc3)C2)C1
- EPAC1 ag val: ?
O=c1[nH]c(=O)c2nc(Br)n(C3OC(CO)C(O)C3O)c2[nH]1 (stereo unspecified)
- EPAC1 ag val: ?
COc1ccc(OC)c(-c2ccnc(-n3ncc(C(=O)N(C)CCO)c3C3CC3)n2)c1
- EPAC1 ag val: -7%
CC1CCC(=O)N(CCSc2ccccc2)CC1 (stereo unspecified)
- EPAC1 ag val: 11%
Brc1c(Br)c(Br)c2n[nH]nc2c1Br
- EPAC1 ag val: -25%
COc1cccc(N2[C@@H](CC(C)=O)c3ccc(/C=C/C(C)=O)cc3S2(=O)=O)c1
- EPAC1 ag val: 14%
CCC1(C2CCN(Cc3ccc(C)s3)CC2)NC(=O)N(CC2COc3ccccc3O2)C1=O (stereo unspecified)
- EPAC1 ag val: -12%
Cc1cccc(CNc2ccnc(-c3ccc(N(C)C)cc3)n2)c1
- EPAC1 ag val: ?
COC(=O)N1CCC2(CC1)CN(c1ccccn1)C2
- EPAC1 ag val: -75%[inhibitor]
O=c1oc(Cl)c(Cl)c2ccccc12
- EPAC1 ag val: 5%
CC(C)[C@H]1COCCS(=O)(=O)N1Cc1ccc(Cl)cc1
- EPAC1 ag val: -49%[inhibitor]
COc1cc(/C(C)=C/c2ccccc2)c2c(c1)oc1ccccc12
- EPAC1 ag val: ?
O=S1(=O)CCO[C@H]2CCCC[C@@H]2N1Cc1ccc(Cl)cc1
- EPAC1 ag val: -73%[inhibitor]
O=C(NCc1cccnc1)[C@@H]1CC=C[C@@H]2CCN(C3CCCCC3)C(=O)[C@@H]21
- EPAC1 ag val: -7%
COC(=O)Nc1ccc2[nH]cc(CCNC(C)=O)c2c1
- EPAC1 ag val: -13%&-9%

COc1ccc2c(c1)OC(C)CN(CC(=O)NCc1cn[nH]c1-c1ccc(F)cc1)C2 (stereo unspecified)
- EPAC1 ag val: 12%
COc1ccc(CNc2ncncc2-c2ccc(N(C)C)cc2)c(OC)c1
- EPAC1 ag val: ?
CC(C)c1c(C(=O)NCCN2CCOCC2)cnn1-c1nccc(-c2ccco2)n1
- EPAC1 ag val: 1%
COc1ccc(-c2nc3cnc(N4CCOCC4)nc3n(C[C@H]3CCCO3)c2=O)cc1
- EPAC1 ag val: 8%
NCCCCC(NC(CCc1ccccc1)C(=O)O)C(=O)N1CCCC1C(=O)O (stereo unspecified)
- EPAC1 ag val: 24%
C=C1CC[C@H](O)CC1=C/C=C1\CCC[C@]2(C)[C@@H]([C@H](C)CC[C@@H](O)C(C)(C)O)CC[C@@H]12
- EPAC1 ag val: -7%
Cc1cc(=O)[nH]c2ccc(O)cc12
- EPAC1 ag val: ?
CC1=C(C(=O)OC(C)C)[C@@H](c2cccc3nonc23)C([N+](=O)[O-])=C(C)N1
- EPAC1 ag val: -1%
Cc1cnc(CNc2ncnc3ccc(-c4c(C)noc4C)cc23)cn1
- EPAC1 ag val: -18%
CC(C)c1ccc(Cn2ccc3c4c(N)nc(NC5CC5)nc4ccc32)cc1
- EPAC1 ag val: -2%
CC(CCC(=O)O)C1CCC2C3CC[C@H]4CC(O)CC[C@@]4(C)C3CC(O)[C@]12C (stereo partly specified)
- EPAC1 ag val: ?
COc1ccccc1C1CN(CCNC(=O)c2ccc3c(c2)OCCO3)Cc2ccccc2O1 (stereo unspecified)
- EPAC1 ag val: 8%
COc1ccc(CN2CCC(=O)N([C@H](CO)c3ccccc3)CC2)cc1
- EPAC1 ag val: 26%
COc1ccc(C(=O)N2CCC[C@@]3(CCN(c4ccccc4)C3)C2)cc1
- EPAC1 ag val: -23%
COc1cc(OC)cc(OC)c1
- EPAC1 ag val: -20%

COC(=O)c1c(Cl)c(Cl)c(C(=O)OC)c(Cl)c1Cl
- EPAC1 ag val: ?
COc1cccc(OC)c1CN1CCC2(CCC(CNC(=O)c3ccccc3)O2)CC1 (stereo unspecified)
- EPAC1 ag val: -13%
CN(C)c1ccc(/C=C/c2ccnc3ccccc23)cc1Cl
- EPAC1 ag val: 13%
O=C(Nc1cccc(F)c1)N1CC2(CCN(S(=O)(=O)c3ccccc3)CC2)C1
- EPAC1 ag val: -12%
O=C(c1ccc(F)cc1)C1CCN(CCn2c(=S)[nH]c3ccccc3c2=O)CC1
- EPAC1 ag val: -4%
CCCCCCCCCCCCC/C=C/[C@@H](O)[C@H](CO)N(C)C
- EPAC1 ag val: -7%
CCNc1ncc2nc(-c3cn(C)c4ccccc34)c(=O)n(C)c2n1
- EPAC1 ag val: 16%
COC(=O)C[C@H]1c2ccccc2S(=O)(=O)N1C(C)C
- EPAC1 ag val: 4%
COc1ccccc1CN1CCCC2(CCN(S(C)(=O)=O)CC2)C1
- EPAC1 ag val: -69%[inhibitor]
CCCCC/C=C\C/C=C\C/C=C\C=C\[C@@H](O)CCCC(=O)O
- EPAC1 ag val: 0%
C#CCN(C1CCCC1)S(=O)(=O)C=C
- EPAC1 ag val: ?
Cc1c(C(=O)N2CCCCCC2)sc2ncnc(NCC3CCCO3)c12 (stereo unspecified)
- EPAC1 ag val: -16%
O=c1cc(-c2ccc(O)cc2)oc2cc(O)cc(O)c12
- EPAC1 ag val: -4%&-16%&-13%&17%&-3%
COc1ccccc1-c1cncnc1NCc1cccc(C)c1
- EPAC1 ag val: 8%
COc1ccc(/C=C/C(=O)N2CCc3c(cnc(C)c3CNS(=O)(=O)c3cccs3)C2)cc1
- EPAC1 ag val: 7%

# 3 entries from above, as tab-separated lines.
SMILES	EPAC1 ag val
Cc1c(C(=O)N2CCCCCC2)sc2ncnc(NCC3CCCO3)c12 (stereo unspecified)	-16%
O=c1cc(-c2ccc(O)cc2)oc2cc(O)cc(O)c12	-4%&-16%&-13%&17%&-3%
COc1ccccc1-c1cncnc1NCc1cccc(C)c1	8%

# Further structures
C#Cc1cccc(C(=O)NCc2nc(-c3cccc(NC(=O)c4ccccn4)c3)oc2C)c1
- EPAC1 ag val: ?
COc1cccc(Cn2c(=O)c(C)nc3cnc(Nc4ccccc4)nc32)c1
- EPAC1 ag val: 22%
c1ccc2nc(C3=NCCN3)cnc2c1
- EPAC1 ag val: 0%
COC(=O)C1C2CC3c4[nH]c5cc(OC)ccc5c4CCN3CC2CC(OC(=O)c2cc(OC)c(OC)c(OC)c2)C1OC (stereo unspecified)
- EPAC1 ag val: ?
CCCCN1C[C@H](Cc2ccccc2)[C@@H](CC(=O)NCc2ccc(OC)cc2)C1=O
- EPAC1 ag val: -39%[inhibitor]
C[C@@H]1Oc2ccccc2C=C1/C=C/C(=O)O
- EPAC1 ag val: -33%[inhibitor]
O=C(Nc1ccccc1)Nc1ccccc1
- EPAC1 ag val: 0%
Cc1cc(C(C#N)c2ccc(Cl)cc2)c(Cl)cc1NC(=O)c1cc(I)cc(I)c1O (stereo unspecified)
- EPAC1 ag val: 5%
CCCCCCCCN1[C@@H](CC(=O)O)c2ccc(C(F)(F)F)cc2S1(=O)=O
- EPAC1 ag val: -67%[inhibitor]
CC(C)(C)CC(C)(C)N=C1Nc2ccccc2N[C@]12C[C@H]1CCCC(=O)N3CC[C@@H](C2)[C@@H]13
- EPAC1 ag val: -75%[inhibitor]
COc1cccc(-c2nc3cc4c(cc3cc2CN(C(=O)c2cc(C)nn2C)C2CC2)CCC4)c1OC
- EPAC1 ag val: 0%
O=C(OC[C@H]1O[C@@H](OC(=O)c2cc(O)c(O)c(OC(=O)c3cc(O)c(O)c(O)c3)c2)[C@H](OC(=O)c2cc(O)c(O)c(OC(=O)c3cc(O)c(O)c(O)c3)c2)[C@@H](OC(=O)c2cc(O)c(O)c(OC(=O)c3cc(O)c(O)c(O)c3)c2)[C@@H]1OC(=O)c1cc(O)c(O)c(OC(=O)c2cc(O)c(O)c(O)c2)c1)c1cc(O)c(O)c(OC(=O)c2cc(O)c(O)c(O)c2)c1
- EPAC1 ag val: -126%[inhibitor]
Cn1cccc1C(=O)N1CCC2(CC1)CCN(c1ncccn1)CC2
- EPAC1 ag val: -75%[inhibitor]
CCOC(=O)/C=C/c1ccc(C(F)(F)F)cc1S(=O)(=O)NC(C)(C)C
- EPAC1 ag val: -114%[inhibitor]
Cn1c(=O)c(CCc2ccccc2)nc2cnc(Oc3ccccc3)nc21
- EPAC1 ag val: ?

NC(=O)CC[C@@H](N)C(=O)O
- EPAC1 ag val: -37%[inhibitor]
Cc1ccc(-c2ccnc(-n3ncc(C(=O)N4CCCCC4c4cccnc4)c3C3CC3)n2)o1 (stereo unspecified)
- EPAC1 ag val: -2%
CC(C)C[C@H]1C(=O)N2CCC[C@H]2[C@]2(O)O[C@](NC(=O)[C@@H]3C=C4c5cccc6[nH]c(Br)c(c56)C[C@H]4N(C)C3)(C(C)C)C(=O)N12
- EPAC1 ag val: 112µM*!
COc1cc(=O)n2c(c1C(=O)N(C)Cc1cscn1)CCN(Cc1ccc3c(c1)OCCO3)CC2
- EPAC1 ag val: -5%
CC(C)C(NC(=O)C(Cc1ccc(O)cc1)NC(=O)C(NC(=O)C(F)(F)F)C(C)C)C(=O)O (stereo unspecified)
- EPAC1 ag val: 25%
COc1ccc(CNc2nc(-c3ccccc3OC)nc3ccccc23)c(OC)c1
- EPAC1 ag val: ?
O=c1c(-c2ccc(F)cc2)nc2cnc(N3CCOCC3)nc2n1C1CC1
- EPAC1 ag val: ?
CCOc1cccc(CN2CCC(n3cc(C(=O)N4CCCCC4)nn3)CC2)c1O
- EPAC1 ag val: -3%
CN1CCN(c2ncc3nc(-c4cc(F)cc(F)c4)c(=O)n(CCc4ccccc4)c3n2)CC1
- EPAC1 ag val: ?
O=[N+]([O-])c1ccc(/C=N\O)o1
- EPAC1 ag val: 18%
Cc1sc2ccccc2[n+]1Cc1ccccc1
- EPAC1 ag val: -1%
COc1ccc(CN2CC[C@H]3C=CC[C@@H](C(=O)Nc4ccccc4)[C@H]3C2=O)cc1OC
- EPAC1 ag val: ?
NC(C(=O)O)c1cccc(O)c1 (stereo unspecified)
- EPAC1 ag val: -9%
COc1ccc(CNC(=O)C2CCCN2c2nc(C)c3ccccc3n2)cc1 (stereo unspecified)
- EPAC1 ag val: 1%
CS(=O)(=O)Nc1cccc(-c2nc(N3CCNCC3)c3ccccc3n2)c1
- EPAC1 ag val: ?

# Reprinted at random: 5 entries already listed.
NC(C(=O)O)c1cccc(O)c1 (stereo unspecified)
- EPAC1 ag val: -9%
COc1ccc(CNC(=O)C2CCCN2c2nc(C)c3ccccc3n2)cc1 (stereo unspecified)
- EPAC1 ag val: 1%
CCOc1cccc(CN2CCC(n3cc(C(=O)N4CCCCC4)nn3)CC2)c1O
- EPAC1 ag val: -3%
CS(=O)(=O)Nc1cccc(-c2nc(N3CCNCC3)c3ccccc3n2)c1
- EPAC1 ag val: ?
Cc1sc2ccccc2[n+]1Cc1ccccc1
- EPAC1 ag val: -1%

# The list goes on.
CCCC[C@@H](C=O)NC(=O)[C@H](CC(C)C)NC(=O)OCc1ccccc1
- EPAC1 ag val: -14%
N=C(N)c1ccc(/C=C/c2ccc(C(=N)N)cc2O)cc1
- EPAC1 ag val: 21%
Cc1cc(O)c(C=O)c2c1C(=O)Oc1c(COC(=O)/C=C/C(=O)O)c(O)c(C(=O)O)c(C)c1O2
- EPAC1 ag val: -35%[inhibitor]
CC(C)(C)C1CCC(=O)N(CCOc2ccccc2)CC1 (stereo unspecified)
- EPAC1 ag val: -83%[inhibitor]
COc1cc([C@@H]2c3cc4c(cc3C(OC3OC5COC(C)OC5C(O)C3O)C3COC(=O)[C@@H]32)OCO4)cc(OC)c1O (stereo partly specified)
- EPAC1 ag val: 7%
O[C@@H]1CO[C@H]2[C@@H]1OC[C@@H]2O
- EPAC1 ag val: -6%

# Structures above with a tert-butyl group (3):
CC(C)(C)CC(C)(C)N=C1Nc2ccccc2N[C@]12C[C@H]1CCCC(=O)N3CC[C@@H](C2)[C@@H]13
- EPAC1 ag val: -75%[inhibitor]
CCOC(=O)/C=C/c1ccc(C(F)(F)F)cc1S(=O)(=O)NC(C)(C)C
- EPAC1 ag val: -114%[inhibitor]
CC(C)(C)C1CCC(=O)N(CCOc2ccccc2)CC1 (stereo unspecified)
- EPAC1 ag val: -83%[inhibitor]

# Assay outcomes from PubChem BioAssay.
